Source: PubChem
SARS PLpro yeast – SARS-CoV PLP inhibition in yeast; S. cerevisiae expressing SARS-CoV PLpro, growth rescue; control for the full effect not named in the record; Potency, µM (titrated, usually from 32.9 µM), for inactives: top-dose activity, positive = growth rescue; actives 0.19% (n = 330,000); AID 485353; active means well fitted rising curve with a large enough effect; inconclusive means small, poorly fitted or top-dose-only effect; inactive means no such curve, though single readings can be large or run the other way; further: 0% is about no effect; nearly all actives have a fitted effect of over 55% in size; growth read by luminescence after 48 h
RE007 growth inh – less growth of the S. pombe RE007 Vpr strain. S. pombe RE007 Vpr strain, BacTiter-Glo ATP luminescence, 24 h; control for the full effect not named in the record. Potency, µM (doses to about 92.2 µM), without a hit: at the top dose activity change, negative = less growth. actives 0.21% (n = 360,000); active = well fitted falling curve with a large enough effect; inconclusive = small, poorly fitted or top-dose-only effect; inactive = no such curve, though single readings can be large or run the other way;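 further: on the % scale 0 is the no-effect control and ±100 the full control effect; nearly all actives have a fitted effect of over 50% in size; the assay follows cell death caused by Vpr and the record does not say whether a fall means rescue or toxicity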
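Fission yeast strain RE007, carrying one chromosomally integrated HIV-1 vpr copy, was seeded at OD 0.01 in PMG+AL medium with 23 nL pinned compound. After 24 h at 30 °C and 99% humidity, viability was read by BacTiter-Glo luminescence.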
NS1 function inh – inhibitors of influenza NS1 protein function; actives 0.4% (n = 270,000); S. cerevisiae slowed by influenza A NS1, growth recovery by OD600; AID 2326; Potency, µM (titrated, usually from 46.1 µM), for the others: at the top dose activity, positive = more growth; active means well fitted rising curve with a large enough effect; inconclusive means small, poorly fitted or top-dose-only effect; inactive means no such curve, though single readings can be large or run the other way; further: nearly all actives have a fitted effect of over 50% in size
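Compounds were scored for reversing the slow growth caused by influenza A NS1 in S. cerevisiae, measured by optical density at 600 nm. Assay medium contained 2% galactose at pH 6.0; NS1-free yeast of the same strain were the positive control.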
Lassa entry inh – inhibitors of Lassa virus binding or cell entry; Lassa virus pseudotype entry inhibition, cell reporter; control for the full effect not named in the record; Potency, µM (series often up to 37.9 µM), without a hit: top-dose activity change, negative = inhibition, usual class: inhibitors; actives 1.2% (n = 300,000); active means well fitted inhibition curve with a large enough effect; inconclusive means small, poorly fitted or top-dose-only effect, or effect the other way; inactive means flat fitted curve, though single readings scatter; tested in HEK293 cells; further: on the % scale 0 is the no-effect control and ±100 the full control effect; nearly all actives have a fitted effect of over 50% in size; luciferase read-out
MARV entry inh – inhibitors of Marburg virus binding or cell entry; Marburg virus pseudotyped entry inhibition, cell reporter; control for the full effect not named in the record; about a third of the inactives were read at about 46 µM; Potency, µM (doses to about 37.8 µM), inactives show top-dose activity change, negative = inhibition, usual class: inhibitors; actives 1.8% (n = 300,000); AID 540276; active = well fitted inhibition curve with a large enough effect; inconclusive = small, poorly fitted or top-dose-only effect, or effect the other way; inactive = flat fitted curve, though single readings scatter; tested in HEK293 cells; about a fifth of its hits are not listed in these tables; further: on the % scale 0 is the no-effect control and ±100 the full control effect; luciferase read-out
Cruzain Triton – cruzain (T. cruzi) inhibition with detergent. P25779. purified cruzain, Z-FR-AMC fluorescence, 0.01% Triton. Potency, µM, without a hit: max response, negative = inhibition, actives largely listed as inhibitors. actives 0.43% (n = 200,000);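 further: plate controls were neutral wells for no effect and buffer without enzyme for full effect; nearly all actives have a fitted effect of over 40% in size; top concentration of the series not given in the record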
Target sequence (P25779 123-467 limits assumed): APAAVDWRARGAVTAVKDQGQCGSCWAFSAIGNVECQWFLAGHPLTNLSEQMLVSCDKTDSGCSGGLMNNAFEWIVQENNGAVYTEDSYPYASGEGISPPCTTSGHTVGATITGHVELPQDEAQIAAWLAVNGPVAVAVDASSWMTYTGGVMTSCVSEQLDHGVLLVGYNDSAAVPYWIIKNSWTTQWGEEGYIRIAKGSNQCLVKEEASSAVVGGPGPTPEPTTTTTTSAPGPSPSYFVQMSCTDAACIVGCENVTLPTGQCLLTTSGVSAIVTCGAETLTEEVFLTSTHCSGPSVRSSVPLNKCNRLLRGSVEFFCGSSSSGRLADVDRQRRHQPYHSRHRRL
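Detergent-containing arm of a paired screen for aggregation-based inhibition: 0.01% Triton X-100 present. Cruzain at 1.5 nM cleaved 2 uM Z-FR-AMC at pH 5.5 with 5 mM DTT; AMC fluorescence gain over 60 s measured activity.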
Cruzain noTriton – blocks cruzain activity in detergent-free assay; P25779; purified cruzain, Z-FR-AMC fluorescence, no detergent; Potency, µM, without a hit: max response, negative = inhibition, most hits filed as inhibitors; actives 2.3% (n = 200,000); AID 1476;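 further: plate controls were enzyme without inhibitor for no effect and buffer without enzyme for full effect; nearly all actives have a fitted effect of over 40% in size; top concentration of the series not given in the record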
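Purified cruzain at 1.5 nM, pre-incubated 15 min with compound at room temperature in 100 mM sodium acetate pH 5.5, 5 mM DTT, 0.00005% Triton X-100. Reaction started with 2 uM Z-FR-AMC; AMC fluorescence increase over 60 s gives rate.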
2A StopGo – lowers the luciferase signal of an FMDV 2A StopGo reporter; human cells with a luciferase reporter of 2A StopGo recoding; control for the full effect not named in the record; Potency, µM (series often up to 57.9 µM), inactives show at the highest dose signal change, negative = less light; actives 1.2% (n = 410,000); AID 1159524; active = well fitted falling curve with a large enough effect; inconclusive = small, poorly fitted or top-dose-only effect; inactive = no such curve, though single readings can be large or run the other way; tested in HEK293T cells; further: on the % scale 0 is the no-effect control and ±100 the full control effect; nearly all actives have a fitted effect of over 45% in size; luciferase light after 4 h
Starred values were filed as active, the others as inactive; ? = inconclusive; nt = no result given; [ ] = dose if it differs, or a comment. Unless noted, the call rests on the fitted dose curve; in most records, active means well fitted curve in the direction sought with a large enough effect; inconclusive means small, poorly fitted or top-dose-only effect, or another doubt; inactive means no such curve, though single readings can be large; an effect the other way counts as inactive or inconclusive. Potency means the concentration at half of the fitted maximal effect. Rows are unselected. Share with any hit: about 4.7%.

Results follow in this order: SARS PLpro yeast | RE007 growth inh | NS1 function inh | Lassa entry inh | MARV entry inh | Cruzain Triton | Cruzain noTriton | 2A StopGo
- O=C(Oc1oc(-c2ccco2)nc1C=Nc1ccccc1)c1ccco1
 : 0% | ? | -3% | ? | ? | 14µM* | 16µM* | ?
- CCCCOc1ccc(C2=NNC(=O)CC2)cc1
 : -5% | 61% | 0% | 4% | -5% | -1.3% | -9% | 36%[activator]
- CCC1Oc2ccccc2N(CC(=O)NCCN2CCCC2)C1=O (centres undefined)
 : 2% | -4% | -2% | 25%[46.1 µM] | -7%[46.1 µM] | nt | nt | -15%
- O=C(CN1C(=O)NC2(CCCC2)C1=O)Nc1ccccc1C(F)(F)F
 : -1% | 6% | ? | -1%[46.1 µM] | -17%[46.1 µM] | nt | nt | 8%
- O=C(Nc1cccc(-c2cccc(F)c2)c1)C1CCN(Cc2ccco2)CC1
 : -6% | -15% | 2% | nt | nt | nt | nt | -7%
- Cc1ccc(NC(=S)N2CCN(c3ncccn3)CC2)cc1C
 : -2% | 15% | 11% | -27% | 26% | -1.5% | 10% | -10%
- O=C1CN(C(=O)Cc2ccc(F)cc2)C(c2ccccc2)c2cc(Br)ccc2N1 (centres undefined)
 : nt | nt | nt | -17%[46.1 µM] | ? | -7.0% | 16% | -15%
- Cc1cccc(NC(=O)Nc2ccc(S(N)(=O)=O)cc2)c1
 : 2% | 1% | -2% | -1%[46.1 µM] | 7%[46.1 µM] | nt | nt | 15%
- CCc1ccc[n+](-c2[nH]c(=O)sc2/C=N/N=C(\N)[O-])c1
 : 0% | 7% | 2% | -1%[46.1 µM] | 1%[46.1 µM] | nt | nt | 23%
- COc1ccc(NC(=O)c2ccc(NC(=O)c3nc4nc(C)cc(C)n4n3)cc2)cc1
 : 2% | 3% | nt | -7% | ? | nt | nt | 0%
- COc1ccc(C2C(C(=O)OCC3CCCO3)=C(C)NC3=C2C(=O)CC(c2ccco2)C3)cc1O (centres undefined)
 : -1% | -4% | 18% | -11% | 13% | -1.3% | 14% | 69%[activator]
- Cn1c(=O)c2c(nc(Cc3ccc(N)cc3)n2C)n(C)c1=O
 : -1% | 21% | 4% | 5%[46.1 µM] | 20%[46.1 µM] | nt | nt | 8%
- Cc1nc(CN2CCN(S(=O)(=O)c3c(Cl)cc(Br)cc3Cl)CC2)cs1
 : -3% | -29% | nt | -13% | -18% | nt | nt | -23%
- CCOc1ccc(NC(=O)c2ccc(CC)s2)c([N+](=O)[O-])c1
 : 1% | -7% | -4% | 23% | ? | nt | nt | 49%[activator]
- CCC(C(=O)c1ccccc1)P(=O)(NN)c1ccccc1 (centres undefined)
 : 0% | -16% | 4% | 11% | ? | nt | nt | 4%

The final two records of the section before lead into the next.
Results follow in this order: SARS PLpro yeast | RE007 growth inh | NS1 function inh | Lassa entry inh | MARV entry inh | Cruzain Triton | Cruzain noTriton | 2A StopGo
- CCOc1ccc(NC(=O)c2ccc(CC)s2)c([N+](=O)[O-])c1
 : 1% | -7% | -4% | 23% | ? | nt | nt | 49%[activator]
- CCC(C(=O)c1ccccc1)P(=O)(NN)c1ccccc1 (centres undefined)
 : 0% | -16% | 4% | 11% | ? | nt | nt | 4%
- CC(=O)C1=C(C)NC(SCC(=O)c2ccccc2)=C(C#N)C1c1ccco1 (centres undefined)
 : -2% | nt | -50% | nt | 6% | -16% | -13% | nt
- COc1ccc(C2c3cc4c(cc3OC(NNC(N)=O)C2C)OCO4)cc1 (centres undefined)
 : nt | 20% | nt | -16%[46.1 µM] | ? | nt | nt | -21%
- O=C(Nc1ccc(F)cc1)N(Cc1nnc2n1CCCCC2)c1ccccc1
 : 3% | 0% | -9% | 11% | -1% | 0.3% | 1% | -3%
- CN1CCN(Cc2cc(Cl)c3cccnc3c2OC(=O)c2cccs2)CC1
 : 11µM* | -8% | -3% | -22% | ? | -3.4% | 0% | -19%
- CC(=O)c1ccc(NC(=O)Cn2cnc(S(=O)(=O)N3CCOCC3)c2)cc1
 : 2% | 5% | -9% | 15%[46.1 µM] | 12%[46.1 µM] | nt | nt | 3%
- COc1ccc2nc(N(CCN(C)C)C(=O)c3ccc4c(c3)OCCO4)sc2c1
 : 15% | 5% | 0% | nt | nt | nt | nt | 6%
- O=P(CCl)(Nc1ccccc1)C(Cl)(Cl)Cl (centres undefined)
 : 1% | -6% | nt | -14% | -12%[46.1 µM] | nt | nt | -1%
- O=C(Nc1nc2n(n1)C(c1ccc(F)cc1)C=C(c1ccc(Cl)cc1)N2)c1ccco1 (centres undefined)
 : nt | nt | nt | 13%[46.1 µM] | 14%[46.1 µM] | -4.5% | 0% | -27%
- COc1ccc(CN2C[C@H](C)[C@@H](CC(=O)NCc3ccccc3)C2=O)cc1
 : 0% | 2% | 17% | nt | nt | nt | nt | -2%
- O=C1CCC(=O)N1OCCOc1ccccc1
 : 0% | 18% | 0% | 7%[46.1 µM] | -6%[46.1 µM] | nt | nt | -6%
- CC1CCCC(NC(=O)CSc2nnc(N)s2)C1C (centres undefined)
 : 1% | 26% | 1% | 10% | 8% | 4.9% | -14% | 9%
- CCOCCCNCc1ccc(OCC(=O)N2CCOCC2)c(OC)c1
 : 0% | 4% | 4% | nt | nt | nt | nt | -7%
- COc1cccc(CN2CCN(C3CCN(c4ccccc4C)CC3)CC2CCO)c1 (centres undefined)
 : 0% | -12% | 3% | nt | nt | nt | nt | -21%
- O=C(NCC1CCCO1)C1CCCN(c2ncccn2)C1 (centres undefined)
 : 0% | 6% | 4% | 0% | 16% | 2.2% | -2% | 1%
- O=C(COc1ccc(S(=O)(=O)N2CCOCC2)cc1)NC1CC1
 : 0% | -2% | 18% | 13%[46.1 µM] | 4%[46.1 µM] | nt | nt | -1%

(more compounds)
| Molecule | SARS PLpro yeast | RE007 growth inh | NS1 function inh | Lassa entry inh | MARV entry inh | Cruzain Triton | Cruzain noTriton | 2A StopGo |
| --- | --- | --- | --- | --- | --- | --- | --- | --- |
| CC1(C)CC(=O)C(C(=S)Nc2ccccc2)=C(NC2CC(C)(C)NC(C)(C)C2)C1 | 0% | 18% | 1% | ? | ? | nt | nt | -14% |
| Cc1[nH]nc(Nc2ccc(C(C)C)cc2)c1[N+](=O)[O-] | -3% | 20% | -6% | ? | ? | nt | nt | 13% |
| CCOc1ccc(S(=O)(=O)N(CC(=O)NN=C2CCN(C)CC2)c2ccc(C)cc2)cc1 | -3% | 6% | ? | ? | -12% | nt | nt | -9% |
| COc1cc([N+](=O)[O-])ccc1NC(=O)CC1SC(=Nc2ccc(F)cc2)N(CCC2=CCCCC2)C1=O (centres undefined) | 13% | 5% | ? | 3.2µM* | ? | -3.9% | 10µM* | ? |
| O=C(CCN1C(=O)COc2ccccc21)N1CCCCC1 | 6% | 7% | -6% | 25% | 2% | 4.6% | -8% | 39%[activator] |
| CC1CCCCC1NC(=O)CSc1nnc(N)s1 (centres undefined) | -5% | 14% | 6% | -3% | -5% | 2.0% | -9% | 5% |
| CC(C)(C)c1ccc(/C=N/Nc2ccc(C(=O)O)cc2)cc1 | 0% | ? | 12% | 2µM* | 3.7µM* | -13% | 2% | 7.1µM* |
| Cc1cc(/C=C2\C(=O)NC(=O)N(C)C2=O)c(C)n1-c1ccc2c(c1)OCO2 | ? | 20% | 16% | 3% | ? | 1.9% | -12% | 13% |
| O=C(Nc1nc2ccccc2n1Cc1ccccc1)c1ccc(COc2ccccc2[N+](=O)[O-])o1 | 5% | -3% | 30% | -12% | ? | 11% | ? | 22% |
| COc1cc(CNc2cccc3[nH]c(C(F)(F)F)nc23)cc(OC)c1 | 2% | 1% | ? | nt | nt | nt | nt | ? |
| CCn1c(C(=O)N2CCC(C(=O)NCCCSC3CCCCC3)CC2)cc2sccc21 | -30% | -5% | -73% | nt | 0% | -8.7% | ? | ? |
| COc1ccc([N+](=O)[O-])cc1/C=N/Nc1nn[nH]n1 | 6% | -1% | nt | -3%[46.1 µM] | 2%[46.1 µM] | nt | nt | -7% |
| CCOC(=O)CSc1nnc(CNc2cccc(Cl)c2)n1C | -17% | 11% | 4% | 9% | 12% | 1.6% | 10% | -21% |
| O=C(O)c1cccc(S(=O)(=O)Nc2ccc3c(c2)CCC3)c1 | 5% | -1% | 26% | nt | nt | nt | nt | 24% |
| O=C1/C(=C/c2ccccn2)SC(=S)N1CCc1ccccc1 | -1% | -1% | 2% | nt | 3% | nt | nt | 32%[activator] |
| Cc1ccsc1CNC12CC3CC(CC(C3)C1)C2 | -2% | -22% | 2% | nt | ? | nt | nt | -13% |
| COC(=O)Cc1csc(Nc2ccc(F)c(Cl)c2)n1 | -33% | -21% | nt | 9% | 11% | nt | nt | -10% |
| Cc1nc2cc(NCc3ccccc3O)ccc2n1Cc1ccccc1 | -1% | -13% | -4% | ? | -5%[14.2 µM] | nt | nt | 24% |
| CC(=O)Nc1ccc(SCC(=O)NCCc2ccc(F)cc2)cc1 | 6% | 45% | 4% | nt | -1%[46.1 µM] | nt | nt | 2% |
| Cc1cc(C)c(C2C(C#N)=C(N)Oc3n[nH]c(C)c32)cc1CN1CCCC1 (centres undefined) | -4% | -3% | -7% | 14% | -5% | -1.7% | -24% | ? |

Retrieved by structure from the list above:
| Molecule | SARS PLpro yeast | RE007 growth inh | NS1 function inh | Lassa entry inh | MARV entry inh | Cruzain Triton | Cruzain noTriton | 2A StopGo |
| --- | --- | --- | --- | --- | --- | --- | --- | --- |
| O=C(O)c1cccc(S(=O)(=O)Nc2ccc3c(c2)CCC3)c1 | 5% | -1% | 26% | nt | nt | nt | nt | 24% |
| O=C(Nc1nc2ccccc2n1Cc1ccccc1)c1ccc(COc2ccccc2[N+](=O)[O-])o1 | 5% | -3% | 30% | -12% | ? | 11% | ? | 22% |
